# YopH inh = YopH tyrosine phosphatase inhibitors, primary screen, biochemical, fluorescence Ex485/Em525 | YopH tyrosine phosphatase [Yersinia enterocolitica] | inhibition, %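 (about 10 µM by stock and volumes)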 | hit rate 0.16% among 140,000;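 active means inhibition of 50% or more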;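 further: controls were vehicle for no effect and minimum signal wells for full effect; inactives centre near -20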
# RecA intein inh = Mtb RecA intein splicing inhibitors, primary screen, biochemical, fluorescence, HTS; Protein RecA (Mycobacterium tuberculosis (strain ATCC 25618 / H37Rv)), P9WHJ3; cell-free RecA intein splicing; inhibition, %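 (about 9 µM by stock and volumes)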; hit rate 0.75% among 290,000; AID 2221, 2009; in the data active means inhibition above about 30%; inconclusive means no clear call, values can overlap the other calls;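 further: 0% = vehicle wells and 100% = reference inhibitor control wells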
# Target sequence (P9WHJ3 whole entry, looked up): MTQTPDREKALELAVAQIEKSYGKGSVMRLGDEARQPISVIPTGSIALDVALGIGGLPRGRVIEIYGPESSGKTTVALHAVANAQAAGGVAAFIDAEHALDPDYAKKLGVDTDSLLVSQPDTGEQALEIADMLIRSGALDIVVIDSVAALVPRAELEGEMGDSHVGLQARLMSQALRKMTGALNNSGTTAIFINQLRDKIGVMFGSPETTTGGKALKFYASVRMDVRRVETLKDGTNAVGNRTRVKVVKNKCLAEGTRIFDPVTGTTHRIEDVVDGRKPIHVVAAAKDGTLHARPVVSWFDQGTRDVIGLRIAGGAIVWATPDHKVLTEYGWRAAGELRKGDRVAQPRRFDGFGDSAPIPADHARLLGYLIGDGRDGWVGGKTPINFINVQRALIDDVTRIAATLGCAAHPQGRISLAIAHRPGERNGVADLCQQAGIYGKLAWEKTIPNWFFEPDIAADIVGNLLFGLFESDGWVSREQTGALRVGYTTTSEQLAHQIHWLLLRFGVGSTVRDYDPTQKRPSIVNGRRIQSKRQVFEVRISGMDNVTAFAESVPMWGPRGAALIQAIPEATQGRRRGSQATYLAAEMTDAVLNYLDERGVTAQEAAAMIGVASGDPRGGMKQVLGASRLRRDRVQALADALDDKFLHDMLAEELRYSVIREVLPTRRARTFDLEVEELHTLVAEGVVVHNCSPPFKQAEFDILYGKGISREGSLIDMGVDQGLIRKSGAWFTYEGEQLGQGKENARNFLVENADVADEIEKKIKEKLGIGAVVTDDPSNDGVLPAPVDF
# Mtb growth = M. tuberculosis H37Rv growth inhibitors, H37Rv strain (AID 1626). M. tuberculosis H37Rv growth inhibition; higher % means a stronger effect. inhibition, % at 10 µM, or IC50 in µM where a hit was titrated. hit rate 0.95% among 220,000;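 active means confirmed in a dose series; inconclusive means inhibition above 80% but not taken into the dose series; inactive means below 80% or under 30% at every dose of the series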;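 further: bacteria incubated seven days before Alamar blue readout; 0% = bacteria only wells and 100% = bacteria with antibiotic wells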
# Arbovirus anti = antivirals against arbovirus infection, primary screen, cell-based, full library, 10K replicate subset | inhibition, % at 10 µM | hit rate 0.37% among 200,000 | AID 1251, 2008 | arbovirus infection cell-based antiviral screen;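 active means inhibition from about 30%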;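 further: bluetongue infection of BSR cells; cell survival read as ATP light after 72 h; 0% = infected wells without compound and 100% = uninfected wells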
# Mtb bLac sens = beta-lactam sensitization of Mtb H37Rv, H37Rv. AID 434955, 2010. inhibition, % at 25 µM. M. tuberculosis H37Rv growth with meropenem, percent inhibition; hits of this screen are not shown here. hit rate 0.27% among 330,000;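 active means about 74% or more and at least 40 points above the plate without the antibiotic, then above 30% in a dose series; inconclusive means first-round hits that could not be retested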;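 further: growth measured after seven days incubation then overnight dye step; 0% = bacteria only wells and 100% = bacteria with antibiotic; twin plates without the antibiotic show which effects depend on it; some results filed as inactive read as strong as hits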
# Arbovirus anti repeat = further read-out of Arbovirus anti, marked with its call; inhibition, %; measured here: 10K subset replicate screen; many hits read low in the repeat;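 first of two repeat runs on a subset; 0% = infected and 100% = uninfected wells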
# * = called active by the depositor; ? = inconclusive; . = not tested or not shown; & = joins results of further samples.
SMILES,YopH inh,RecA intein inh,Mtb growth,Arbovirus anti,Mtb bLac sens,others
CC1C(=O)N2CCCc3cc(S(=O)(=O)N(C)CCC#N)cc1c32 (stereo not given),.,-2.3,.,.,-8,
Cc1cc(C=C2C(=O)CCCC2=O)c(C)n1-c1ccccc1,-15,3.4,-6%,-12,11,
Cc1ccc(C(=O)COC(=O)CNC(=O)c2ccc(Br)o2)cc1[N+](=O)[O-],.,0.1,4%,.,-5,
COc1ccc(Nc2ccc(S(=O)(=O)N3CCCCC3)cc2[N+](=O)[O-])cc1Cl,-17,5.0,41%,2,44,
Cc1ccccc1NC(=O)C1C2C=CC(C3CC23)C1C(=O)O (stereo not given),.,-1.3,-4%,-4,-11,
O=C(Nc1ccc(S(=O)(=O)Nc2ncccn2)cc1)c1ccc(Br)s1,-25,.,-15%,-4,13,
COc1ccc(CN2CCN(CCCc3ccccc3)C(CCO)C2)cc1OC (stereo not given),.,0.6,.,.,0,
CCOc1ccc(CCNC(=O)c2ccc(CS(=O)Cc3ccccc3Cl)o2)cc1 (stereo not given),.,-1.2,.,.,7,
CCCCNC(=O)CSc1nc2ccsc2c(=O)n1CCCC(=O)NCCc1ccc(S(N)(=O)=O)cc1,.,.,5%,-7,0,
CC1Nc2ncnc(N3CCN(c4ccccc4)CC3)c2N(Cc2ccc(Cl)cc2)C1=O (stereo not given),.,1.4,.,.,93,
COc1cc([N+](=O)[O-])cc2sc(NC(C)=O)nc12,.,0.3,2%,.,-5,
O=C1CSC(=S)N1/N=C/c1ccc(O)c([N+](=O)[O-])c1,.,.,-7%,-2,.,
O=c1oc2ccccc2c(N2CCCCC2)c1CN1CCCC1,-24,-0.1,-7%,4,-5,
CCOC(=O)COc1cccc2c(=O)n(CC(=O)N3CCC(C)CC3)ccc12,.,-1.6,0%,3,-1,
CC(NC(=O)C1CCCN(S(=O)(=O)c2cccs2)C1)c1ccccc1 (stereo not given),-19,-4.3,-7%,1,-5,
CCN(CC)CCN1C(=O)C(=O)/C(=C(/O)c2ccc(F)cc2)C1c1ccncc1 (stereo not given),-23,-0.9,0%,-2,-1,
O=c1cc(C(F)(F)F)[nH]c2ccc(C(F)(F)F)cc12,.,1.0,-3%,.,0,
O=C(c1cccc(C(F)(F)F)c1)N1CCN(c2cc(=O)[nH]nc2-c2ccccc2)CC1,-7,-1.9,-4%,-4,7,
COCCN(C(=O)Nc1ccccc1)C(C)c1cccnc1 (stereo not given),-32,-1.0,3%,-2,-4,Arbovirus anti repeat=1
OCC1OC(n2cnc3c(NC4CCCCC4)ncnc32)C(O)C1O (stereo not given),.,-0.3,1%,1,-6,
COc1cccc(N2CCN(CC(=O)NCc3ccccc3)CC2)c1,.,0.7,.,.,-1,
CCC(=O)Nc1ccc(NC(=O)CSc2nc3c(c(=O)n(C)c(=O)n3C)n2CC)cc1,.,-3.9,.,.,38,
COc1ccc(C(=O)N/N=C/c2cccnc2)cc1,.,0.8,.,.,-11,
CCOC(=O)COc1nc(C)cc(C(F)(F)F)c1C#N,.,-4.7,4%,.,-7,
CC(C)C(=O)NNC(=O)c1c(O)c2ccccc2[nH]c1=O,.,-3.7,-11%,.,3,
COc1ccc(C)c2sc(=NC(=O)c3ccc(C(C)=O)cc3)n(C)c12,.,-2.8,-5%,.,1,
COc1ccc(NC(=O)CC2C(=O)OCC3CCCCN32)cc1Cl (stereo not given),-42,-2.0,57%,-4,13,
CCn1cc(-c2nnnn2-c2ccc(Cl)cc2)c(=O)c2ccccc21,-25,-0.9,-9%,-6,-9,
Cc1ccc(N2CC(C(=O)OCc3ccccc3)CC2=O)cc1 (stereo not given),-55,3.3,29%,1,97,
O=C(CN1CCN(Cc2ccccc2)CC1)Nc1cccc(Cl)c1,.,0.6,.,.,-5,
CCc1nc(C)cn1S(=O)(=O)c1cc(Br)c(C)cc1OC,-39,1.5,6%,14,1,
Cc1ccc(NC(=O)/C(=C/c2ccncc2)NC(=O)c2ccccc2)cc1,-11,-1.0,-2%,3,7,
COc1ccc(-c2nnc(SCC(=O)/C(C#N)=C(\C)N)o2)cc1,10,-0.5,-7%,5,.,
COc1cc(-c2nn3c(Cc4ccccc4)nnc3s2)cc(OC)c1OC,-15,3.0,-5%,3,-5,
Cc1c(C#N)sc(C(N)=O)c1C,.,-0.4,-1%,1,1,
Cc1ccccc1NS(=O)(=O)c1ccc(F)cc1,-14,0.4,0%,9,-4,
COc1ccc(Nc2nc(N)nc(SCc3nnc(C)s3)n2)cc1,-27,-0.9,11%,5,-3,
COc1cccc(-c2nnc(SCC(=O)Nc3cc(C)ccc3OC)n2N)c1,-25,.,-2%,-2,8,
COc1cccc(NC(=O)C(NCCC(C)C)c2ccccc2)c1 (stereo not given),-1,0.6,1%,-17,-16,
CCOC(=O)c1ccccc1NC(=O)c1cn(CC)c2nc(C)ccc2c1=O,.,-0.5,.,.,8,
Cn1cccc1/C=N\NC(=O)C1COc2ccc(C(C)(C)C)cc2O1 (stereo not given),.,2.4,.,.,?,
O=C(CCC(=O)Nc1nnc(C2CCCCC2)s1)Nc1ccc(F)cc1,.,6.9,.,.,-1,
COCCNC(=O)C(C)OC(=O)c1cc2occc2n1C (stereo not given),-23,0.3,-7%,2,-5,
COc1ccc(-c2nn(-c3ccccc3)cc2/C=C2/SC(=S)N(CCCC(=O)O)C2=O)c(C)c1,.,4.6,.,.,1,
CCOc1ccc(/C=N/Nc2ccccc2)cc1,.,5.9,.,.,75,

# Quoted at random: 6 compounds from above.
SMILES,YopH inh,RecA intein inh,Mtb growth,Arbovirus anti,Mtb bLac sens,others
CCc1nc(C)cn1S(=O)(=O)c1cc(Br)c(C)cc1OC,-39,1.5,6%,14,1,
CCn1cc(-c2nnnn2-c2ccc(Cl)cc2)c(=O)c2ccccc21,-25,-0.9,-9%,-6,-9,
Cc1c(C#N)sc(C(N)=O)c1C,.,-0.4,-1%,1,1,
CC1Nc2ncnc(N3CCN(c4ccccc4)CC3)c2N(Cc2ccc(Cl)cc2)C1=O (stereo not given),.,1.4,.,.,93,
O=C(Nc1ccc(S(=O)(=O)Nc2ncccn2)cc1)c1ccc(Br)s1,-25,.,-15%,-4,13,
O=C1CSC(=S)N1/N=C/c1ccc(O)c([N+](=O)[O-])c1,.,.,-7%,-2,.,

# (listing goes on)
SMILES,YopH inh,RecA intein inh,Mtb growth,Arbovirus anti,Mtb bLac sens,others
COc1cccc(NC(=O)CS(=O)(=O)c2cccc3nsnc23)c1,.,-1.6,.,.,4,
CCCc1ccc(Oc2cc(C)nc(N3CCOCC3)n2)cc1,-16,2.5,-1%,-6,3,
CC(=O)N(Cc1ccccc1)c1c(N)nc(N)[nH]c1=O,.,0.1,.,.,-11,
OC1/C(=C/c2ccccc2C(F)(F)F)N2CCC1CC2 (stereo not given),.,0.0,5%,-2,1,
Cc1ccc2nc(N3CCOCC3)c3nncn3c2c1,-18,-0.1,.,1,-7,Arbovirus anti repeat=-5
CC(C)OCCCNC(=O)C1CCC(=O)N1C1CCCC1 (stereo not given),-22,2.1,1%,-7,-5,
Cc1ccc(CNS(=O)(=O)c2ccc3c(c2)N(C)CCO3)cc1,.,-0.6,.,.,-5,
Cc1cc(C)n(-c2ccc(NC(=O)C3CCCCN3C(=O)c3ccc(C)s3)cc2)n1 (stereo not given),.,2.2,.,.,4,
O=C(Nc1cccc(Cl)c1)NC1CC2CCC1C2 (stereo not given),.,3.4,.,.,100,
Cc1cc(NC(=O)COn2nnc3ccc(Cl)cc32)no1,-25,-5.3,-4%,7,-7,Arbovirus anti repeat=5
COC(=O)COc1ccc(S(=O)(=O)Nc2ccccc2C(=O)OC)cc1,-15,3.3,-7%,0,-8,
CCOC(=O)c1c(/N=C/c2ccc(C)cc2O)sc2c1CCN(C)C2,.,-5.9,-7%,.,-4,
Cc1ccc(NC(=S)N/N=C/c2c(C)nn(-c3ccccc3)c2N2CCCC2)cc1,-10,6.2,9%,15,0,
COC(=O)Cc1cc(=O)n2[nH]c(SC)nc2n1,-17,-3.1,-11%,3,-3,
O=C(Nc1ccc2c(c1)OCO2)N1CCN(S(=O)(=O)c2ccc(Cl)cc2)CC1,-24,-2.8,-2%,-2,-4,
COCCN1C(=O)c2oc3ccccc3c(=O)c2C1c1ccc(O)c(OC)c1 (stereo not given),-23,-1.5,0%,4,2,Arbovirus anti repeat=10
N#Cc1nc(COc2ccc(Cl)cc2Cl)oc1N1CCOCC1,-41,0.6,9%,-3,-10,
COc1cccc(/C=N/NC(=S)NCc2ccco2)c1OC,.,-1.9,-7%,.,-1,
CCOc1cccc(-c2c(C(=O)N/N=C/c3ccc(Br)cc3)nnn2-c2nonc2N)c1,.,-0.8,.,.,33,
CCN(CC)C(=O)c1cc(Cl)ccc1NC(=O)c1ccco1,.,-2.4,6%,.,-5,
O=C(CSc1n[nH]c(Cc2ccccc2)n1)Nc1ccccc1Br,.,-1.8,.,.,1,
N#C/C(=N/Nc1ccc([N+](=O)[O-])cc1)C(=N)N1CCCCC1,.,4.5,14%,7,.,
CC(=O)C1=C(O)CC(c2ccccc2)CC1=NCCc1c(C)[nH]c2ccccc12 (stereo not given),-19,5.8,-1%,1,2,
O=C(CCc1nnc2ccc(NCc3ccc(F)cc3)nn12)NC1CCCC1,.,0.0,.,.,-4,
CC(C)n1nccc1N(Cc1ccc(Cl)cc1)S(=O)(=O)c1ccccc1,.,22,.,.,-1,
Cc1ccc(C(=O)NNC(=O)CSc2nnc(-c3ccccc3)n2Cc2ccccc2)cc1,-19,-1.6,-5%,14,-10,
O=C(NCCC1CCCCN1S(=O)(=O)c1ccccc1)C(=O)NC1CCCC1 (stereo not given),.,-2.3,.,.,-13,
COc1ccc2c(c1)C13CCCC[C@@H]1C(C2)N(C)CC3 (stereo not given in full),.,-0.9,-1%,.,-6,
Clc1ccccc1CN1CCC(Cc2ccccc2)CC1,-12,3.4,7%,-3,1,
CC(C)CC(=O)Nc1ccc2c(c1)nc(CCN1CCCCC1)n2C,.,-0.4,.,.,-2,
O=S(=O)(NC1CC2CCC1C2)c1ccc(Cl)cc1 (stereo not given),.,1.1,.,.,3,
NC(=O)C1CCN(C(=O)CSc2nc3ccccc3s2)CC1,-24,0.0,-3%,3,-14,
O=C(NCc1cccnc1)c1cc(-c2ccccc2)on1,-25,-1.7,-3%,-4,-2,
CC1(C(=O)NNC(=O)c2ccc([N+](=O)[O-])cc2)CC1(Br)Br (stereo not given),.,-2.3,.,.,1,
COc1cccc(-n2nnnc2SCC(=O)c2cc(OC)ccc2OC)c1,-34,.,-10%,0,.,
O=C(Nc1nnc(S(=O)(=O)Nc2ccccc2)s1)c1ccccc1Cl,.,2.6,.,.,16,
CC(=O)Nc1ccc(S(=O)(=O)NC2CCSc3ccccc32)cc1 (stereo not given),.,0.2,.,.,-9,
COc1ccc(C(C)=O)cc1CSc1nncn1C,.,-0.4,-1%,2,-2,
Cc1ccc(C(=O)NCC2CCCO2)cc1[N+](=O)[O-] (stereo not given),-6,2.8,6%,4,-8,
Cc1ccc(S(N)(=O)=O)cc1NC(=O)c1ccc2c3c(cccc13)CC2,.,0.2,.,.,6,
CC1CN(S(=O)(=O)c2cccc(C(F)(F)F)c2)CC(C)O1 (stereo not given),.,-3.5,-6%,.,-2,
COC(=O)c1ccc(C(=O)OC)c(NC(=O)CSCc2ccc(Cl)cc2)c1,-21,-2.8,-5%,4,2,
COc1ccc(-c2cc(C(=O)N(C)CC(=O)Nc3ccccc3Br)c3ccccc3n2)cc1OC,.,3.8,.,.,6,
CC(C)N(CCC(C(N)=O)(c1ccccc1)c1ccccn1)C(C)C (stereo not given),-30,1.4,-5%,9,-10&-4,
O=C(NCc1ccco1)C(c1cccnc1)N(C(=O)Cn1nnc2ccccc21)c1ccccc1 (stereo not given),-13,1.7,-9%,4,0,
CCOc1ccc(S(=O)(=O)NCCC(=O)NCCc2ccc(C(C)C)cc2)cc1,.,-0.9,.,.,0,
COC(=O)[C@@]1(Cc2ccc(F)cc2)[C@H]2c3cc(C(=O)N(C)C)n(Cc4ccc(OC)c(OC)c4)c3C[C@H]2CN1C(=O)c1ccccc1,-13,14,6%,-7,79,
CC(C)COc1ccc(-c2nn(-c3ccccc3)cc2/C=C2/SC(=S)N(CC(=O)O)C2=O)cc1,.,-0.8,.,.,-13,
CC1(C)Cc2ccccc2-c2nc(NN)[nH]c(=O)c21,.,-4.5,.,.,-3,

# Screening results from PubChem.

# Not all compounds are listed; rates above refer to the full screens.
